Calb FLC = C. albicans growth inhibition with fluconazole, primary screen, CaCi-2 strain, Alamar Blue fluorescence. AID 1979, 2009. C. albicans CaCi-2 (fluconazole-resistant clinical isolate) + fluconazole, 48 h. 300,000 tested, 0.57% active. growth inhibition, % (test concentration not listed);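 active = most replicates above 75%; inconclusive = exactly half above 75%; inactive = most below 75%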;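 also: all wells also contain fluconazole at 8 µg/ml as a sub-toxic cotreatment; 0% = median of DMSO wells and 100% = median of geldanamycin control wells; wells of about 8 µL received 7.5 nL stock; the first replicate is given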
ALR H2O2 inh = inhibitors of human ALR sulfhydryl oxidase, primary screen, biochemical, H2O2 detection, HRP-luminol luminescence, single point; FAD-linked sulfhydryl oxidase ALR (Homo sapiens), P55789; purified ALR, DTT oxidation; inhibition, % (test concentration not listed); 290,000 tested, 3.8% active;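 active = mean and each replicate at 75% or more; inconclusive = only one of the two met; inactive = neither met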;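 also: stock transfer was 7.5 nL into about 7.5 µL; 0% = neutral wells and 100% = wells with inactivated enzyme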
Target sequence (P55789 whole entry, looked up): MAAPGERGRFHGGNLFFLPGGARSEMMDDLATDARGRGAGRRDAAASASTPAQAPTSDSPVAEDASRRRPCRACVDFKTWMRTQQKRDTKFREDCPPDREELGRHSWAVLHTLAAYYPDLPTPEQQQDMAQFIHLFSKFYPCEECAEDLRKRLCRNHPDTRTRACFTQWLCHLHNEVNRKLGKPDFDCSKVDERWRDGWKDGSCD
Vif A3G = inhibitors of Vif binding to APOBEC3G peptide, primary screen, biochemical, TR-FRET, GST-Vif 1-94, biotin-A3G peptide, dose response retest (AID 1117319). Virion infectivity factor (Human immunodeficiency virus type 1 group M subtype B (isolate …. TR-FRET GST-Vif / biotin-A3G peptide binding; higher % means a stronger effect; test concentration not given here; strong numbers were not always called active. inhibition, %, or IC50 in µM where a hit was titrated. 260,000 tested, 0.57% active;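 active = above the screen mean plus three standard deviations and confirmed in dose response; inconclusive = results disagree or hit not tested in dose response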;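 also: Vif residues 1-94 fused to GST binding biotinylated APOBEC3G peptide 110-148; 0% = full assay without inhibitor and 100% = GST in place of GST-Vif; retest series ran down from 100 µM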
HNF4A DNA FP = change in binding of human HNF4A to DNA, primary screen, biochemical, fluorescence polarization, FITC-DNA; Hepatocyte nuclear factor 4-alpha (Homo sapiens), P41235; 1 h; activity change, % at 10 µM; 360,000 tested, 0.3% active; AID 1224865, 2016; in the data active = activity change above about 30%, passing the limit was not always enough;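 also: controls were the assay level and a saturating level of protein; the project sought stronger binding though the title names inhibitors; some compounds called inactive have numbers as strong as hits; positive values seem to mean higher polarization but the record does not say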
Target sequence (P41235 whole entry, looked up): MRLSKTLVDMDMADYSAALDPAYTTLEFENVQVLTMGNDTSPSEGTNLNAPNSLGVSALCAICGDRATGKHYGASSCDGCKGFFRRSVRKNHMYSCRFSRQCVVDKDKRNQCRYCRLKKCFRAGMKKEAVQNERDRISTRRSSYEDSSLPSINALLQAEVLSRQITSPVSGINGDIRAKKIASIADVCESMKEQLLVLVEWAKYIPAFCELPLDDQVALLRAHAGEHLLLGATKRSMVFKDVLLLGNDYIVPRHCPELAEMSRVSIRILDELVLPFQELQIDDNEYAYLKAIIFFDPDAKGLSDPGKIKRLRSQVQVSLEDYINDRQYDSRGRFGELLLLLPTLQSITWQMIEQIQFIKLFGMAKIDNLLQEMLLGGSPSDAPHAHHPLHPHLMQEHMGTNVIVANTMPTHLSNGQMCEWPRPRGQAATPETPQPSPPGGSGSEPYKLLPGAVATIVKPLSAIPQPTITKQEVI
RanGTP-Impb inh = inhibitors of RanGTP-importin-beta interaction, primary screen, biochemical, FRET, CFP-Ran, YFP-importin-beta, homogeneous | Ran GTPase (GTP-bound) - importin-beta complex | cell-free CFP-Ran/YFP-importin-beta FRET ratio | inhibition, % (no concentration beside the values) | 300,000 tested, 1.1% active;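 active = most replicates above 15%; inconclusive = exactly half above 15%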;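 also: 0% = DMSO wells and 100% = Ran loaded with GDP instead of GTP; wells of about 40 µL received 100 nL stock; the first replicate is given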
LANA-H2A inh = blockers of LANA interaction with H2A/H2B – biochemical, FP readout, HTS, primary screen; Protein LANA1 (Human herpesvirus 8 type P (isolate GK18)), Q9QR71; cell-free LANA-H2A/H2B peptide, fluorescence polarization; inhibition, % (concentration not given with the values); 320,000 tested, 0.6% active; AID 2629, 2010; in the data active = inhibition mostly above about 10%, no sharp cut-off; inactive = mostly below about 6.7%;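 also: stock transfer was 7.5 nL into about 10 µL; 0% = median of vehicle wells and 100% = median of positive control wells; one replicate is shown; the record names a cut of 25% in any replicate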
Beta2AR agonist = beta2AR agonists driving receptor internalization, primary screen, cell-based, FAP fluorogen, flow cytometry; Am2.2-beta2AR cells; reference of the scale not given here; response, % (test concentration not listed); 340,000 tested, 0.43% active;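 active = response above a set limit, near 3 SD of response in nonfluorescent compounds, cut at about 42% in these data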;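 also: stock transfer was 100 nL into about 11 µL; a reference agonist was the positive control; negative values mostly stem from fluorescent compounds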
Target sequence (P07550 whole entry, looked up): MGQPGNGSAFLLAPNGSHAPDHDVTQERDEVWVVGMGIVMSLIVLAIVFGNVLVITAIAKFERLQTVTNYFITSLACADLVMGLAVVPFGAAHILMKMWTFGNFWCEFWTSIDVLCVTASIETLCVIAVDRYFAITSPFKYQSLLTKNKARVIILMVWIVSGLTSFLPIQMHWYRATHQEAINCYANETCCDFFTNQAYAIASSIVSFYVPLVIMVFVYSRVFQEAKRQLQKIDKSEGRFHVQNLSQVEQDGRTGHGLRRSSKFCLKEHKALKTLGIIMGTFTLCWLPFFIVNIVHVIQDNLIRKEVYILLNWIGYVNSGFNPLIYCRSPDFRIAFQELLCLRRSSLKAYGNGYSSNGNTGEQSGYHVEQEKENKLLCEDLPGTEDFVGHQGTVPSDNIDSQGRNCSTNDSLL
* hit, by the source's call; ? = inconclusive; . = not tested or not shown.

SMILES | Calb FLC | ALR H2O2 inh | Vif A3G | HNF4A DNA FP | RanGTP-Impb inh | LANA-H2A inh | Beta2AR agonist
Cc1c(C(=O)CN2CCCC(C)(C)C2)c2ccccc2n1C | 4 | -15 | -1% | -1.0 | 1.0 | -4.1 | -4
CCC(C)(C)NC(=O)CC(c1ccc(OC)cc1)n1cccc1 (stereo not given) | -52 | 0 | 12% | -8.1 | ? | -6.8 | 10
C=CCN1CCN(C(=O)CSc2ccccc2)CC1 | -5 | -5 | . | 2.3 | 4.4 | -2.2 | -1
Cc1cccc(CSC(=N)N)c1 | -8 | 39 | . | -2.0 | -0.6 | -2.2 | -11
CS(=O)(=O)Nc1ccc(-c2cc(/C=C3\SC(N)=NC3=O)c[nH]c2=O)cc1 | 31 | -29 | . | 1.1 | 12 | -4.8 | -3
C/C(=N\NC(=O)c1nnn(-c2nonc2N)c1CSc1ccccc1)c1ccc2c(c1)OCO2 | 2 | . | -8% | 3.9 | 4.2 | 1.6 | 8
O=C(CCCSc1nc2ccccc2[nH]1)NC1=NCCS1 | 4 | -13 | 22% | 2.6 | 0.0 | -2.8 | 10
COc1ccc2cc(CN(CCCN3CCOCC3)Cc3nnnn3C3CCCC3)c(=O)[nH]c2c1 | -6 | -3 | 8% | 1.1 | 1.9 | -7.3 | -16
Cc1cc(C)cc(NC(=O)C(NCCN2CCOCC2)c2ccccc2)c1 (stereo not given) | -7 | -18 | . | 6.4 | -0.3 | 3.9 | -2
CC(=O)C1=C(C)OC(N)=C(C#N)C1c1cc2cccc(C)c2nc1Cl (stereo not given) | 49 | 34 | -1% | 1.0 | -1.7 | 2.3 | -5
N#Cc1ccc(Cn2ccnc2C(=O)Nc2ccccc2)cc1 | 20 | 6 | 2% | -2.7 | -0.1 | 4.2 | .
CC1(N=Cc2cc(Cl)ccc2O)COP(=O)(Nc2ccccc2)OC1 (stereo not given) | . | . | 8% | -4.5 | . | . | -1
Cc1c(NC(=O)OCCNC(=O)Nc2ccccc2)sc(=S)n1C | -4 | 98* | 3% | -4.5 | 2.5 | 2.1 | -13
CCOC(=O)c1[nH]cnc1C(=O)N[C@@H](C)c1ccccc1 | . | 2 | . | 2.4 | . | -0.1 | -8
O=C(Cn1nc(-c2ccccc2)ccc1=O)NCC1CCCO1 (stereo not given) | -20 | -3 | 5% | 0.5 | 2.8 | 1.3 | 4
O=C(NNC(=O)c1ccncc1)Nc1cccc(C(F)(F)F)c1 | -7 | 39 | 8% | -0.3 | -1.3 | -0.1 | -1
CC(=O)Nc1ccc(/C(C)=N/NC(=O)c2ccc(COc3ccccc3Cl)o2)cc1 | -11 | 8 | . | -8.8 | 3.3 | -1.5 | -1
CC(OC(=O)C1CSC2(C)CCC(=O)N12)C(=O)Nc1cccc(C#N)c1 (stereo not given) | -3 | -6 | -8% | 1.1 | 3.0 | 5.8 | -7
CC1CCCCC1NC(=O)CNC(=O)c1ccco1 (stereo not given) | -8 | -3 | -12% | 1.3 | -0.6 | 1.8 | -2
COc1ccc(N2CCN(C(=O)CN(C)S(=O)(=O)c3cc(C)ccc3OC)CC2)cc1 | -1 | 6 | . | 2.1 | -2.7 | 3.7 | 4
Nc1nc(NCC2CCCO2)nc(Nc2ccc(F)cc2)c1[N+](=O)[O-] (stereo not given) | 11 | -16 | 11% | -1.8 | -1.7 | 4.2 | -24
Cc1cc(N2C(=O)C(O)=C(C(=O)c3cccs3)C2c2ccccc2)no1 (stereo not given) | 26 | . | -5% | 7.3 | 4.5 | -3.2 | -17
CCOc1ccc(C(=O)OCC(=O)NCC2CCCO2)cc1 (stereo not given) | . | -2 | . | 0.7 | . | 1.3 | -8
CCOc1ccc(NC(=S)N2CCN(c3ccc(N4CCOCC4)nn3)CC2)cc1 | -37 | . | . | -2.0 | 12 | -2.4 | -7

Brought forward from above: two entries; new compounds follow.
SMILES | Calb FLC | ALR H2O2 inh | Vif A3G | HNF4A DNA FP | RanGTP-Impb inh | LANA-H2A inh | Beta2AR agonist
CCOc1ccc(C(=O)OCC(=O)NCC2CCCO2)cc1 (stereo not given) | . | -2 | . | 0.7 | . | 1.3 | -8
CCOc1ccc(NC(=S)N2CCN(c3ccc(N4CCOCC4)nn3)CC2)cc1 | -37 | . | . | -2.0 | 12 | -2.4 | -7
O=c1[nH]c(Nc2nc3ccccc3o2)nc2c1CCCC2 | 2 | -13 | 6% | 3.1 | 2.7 | -3.1 | 7
Cc1ccc(NC(=O)C2CCCN2C(=O)Oc2ccccc2)cc1 (stereo not given) | -3 | -7 | 6% | -1.1 | -3.9 | -4.5 | -1
COc1ccc(CC(=O)Nc2ccc(S(=O)(=O)N3CCOCC3)cc2)cc1 | . | -3 | -1% | 2.6 | . | 4.9 | -1
c1ccc(C2NCCNC2c2ccccc2)cc1 (stereo not given) | . | . | -5% | 0.9 | . | . | -4
CC(C)(C)NC(=O)NC(=O)CSc1ncn[nH]1 | -15 | . | 6% | 1.5 | -1.4 | 2.2 | 1
CCOC(=O)/C(=N\Nc1ccccc1Cl)N(C)C1CCCCC1 | -54 | 99* | 7% | -3.0 | -0.7 | 5.5 | 3
COC(=O)Nc1ccc(S(=O)(=O)N2CCCC(C(=O)O)C2)cc1 (stereo not given) | -12 | 2 | 1% | 4.1 | 2.5 | 1.3 | -2
O=C(COc1ccccc1Cl)c1ccc2c(c1)CCCC2 | -9 | 3 | 0% | 0.0 | 7.7 | 4.3 | -3
COCCCNC(=O)c1ccc2c(=O)n(C3CCCC3)c(=S)[nH]c2c1 | 61 | -4 | -1% | 4.1 | -1.7 | 4.6 | -3
CCCCCCOC(=O)CCn1[nH]c(=O)c2ccccc2c1=O | 57 | -3 | 12% | 0.7 | 0.5 | 16 | -3
c1ccc(-c2ccc(-c3csnn3)cc2)cc1 | 10 | 3 | -4% | 1.9 | 1.9 | 6.9 | -9
NC(=O)c1cc(S(=O)(=O)N2CCCC2)ccc1OCc1ccc(F)cc1 | 1 | -29 | . | 2.0 | -4.4 | 12 | -2
CN1CCN(C(=S)C(=O)NCc2ccccc2)CC1 | 2 | 33 | -13% | -1.9 | -0.8 | -2.0 | 5
Cc1ccn(S(=O)(=O)c2ccc(N3CCCC3=O)cc2)n1 | -6 | 0 | . | 2.2 | 6.8 | -16 | 0
Clc1cccc(/C=N\Nc2nccs2)c1 | -15 | 9 | -1% | 4.0 | -2.8 | 3.6 | -4
CCC1CCCCN1CCCNC(=O)c1ccc2c(c1)c(C)c(C)n2C (stereo not given) | 2 | 7 | -1% | 4.8 | -1.9 | -1.0 | 12
Cc1[nH]n(-c2nc(-c3ccccc3F)cc(=O)[nH]2)c(=O)c1CCO | 36 | 15 | 69% | 0.9 | -1.0 | 2.9 | 1
CCCCC(c1nnnn1C1CCCC1)N1CCN(C2CCCC2)CC1 (stereo not given) | 4 | -19 | -5% | 1.2 | 24 | 3.7 | 13
O=C1CN(C(=O)c2cccs2)c2ccccc2N1 | -26 | . | 4% | 3.3 | 1.6 | 2.5 | -4
CCN(CC)CCCCCCCCOC(=O)c1cc(OC)c(OC)c(OC)c1 | . | -14 | . | -1.1 | . | 5.1 | 3
Cc1c(CNCCCc2ccccc2)c(C(=O)O)c(C)n1Cc1ccccc1 | -14 | -14 | 0% | -1.4 | 3.3 | 8.2 | 3
CC(=O)Nc1ccc(-c2csc(N/N=C(/C)c3ccccc3)n2)cc1 | -5 | 99* | 19% | 4.5 | 0.9 | -0.3 | 10
O=C(Nc1ccncc1)c1cc(S(=O)(=O)N2CCCCC2)ccc1Cl | -2 | -82 | 6% | 4.8 | -1.0 | 1.5 | 2
CCC(C)NC(=O)CCc1nnc2ccc(N3CCC(C)CC3)nn12 (stereo not given) | 1 | 1 | 2% | -0.8 | 8.5 | 7.4 | -12
CCCS(=O)(=O)c1c(S(=O)(=O)CCC)c2ccc(C(N)=O)cn2c1C(=O)c1ccc(F)cc1 | -2 | 0 | 4% | 0.3 | 0.8 | -0.3 | -4
O=C(C1Cc2ccccc2CN1S(=O)(=O)c1ccc(F)cc1)N1CCCCCC1 (stereo not given) | -2 | -4 | -4% | -0.3 | 6.7 | -2.1 | -3
O=C(NCCCn1ccnc1)c1cc(-c2cccc(O)c2)on1 | -1 | 3 | . | 0.8 | -0.4 | 2.6 | -4
O=C(N/N=C/c1ccc([N+](=O)[O-])o1)c1cn2ccc3ccccc3c2n1 | 3 | -31 | 17% | -1.0 | 2.7 | 4.5 | 40
CC(=O)NC(CC(=O)Nc1ccc(S(=O)(=O)N2CCCC2)cc1)c1ccccc1 (stereo not given) | -7 | -17 | 3% | 1.4 | -2.7 | 0.0 | 2
CNC(=O)/C(=C\c1ccc([N+](=O)[O-])cc1)NC(C)=O | -4 | -12 | 4% | 1.4 | -5.9 | 1.1 | 2
CC1(C)CC(=O)C(C(=O)Cc2ccccc2[N+](=O)[O-])C(=O)C1 | -4 | -21 | -8% | 0.0 | -1.0 | 1.3 | -1
CN(Cc1ccccc1)c1ncnc2ccc(Br)cc12 | -2 | 6 | 19% | 0.7 | -0.3 | -0.1 | -6
O=C1CC2(CCCC2)C(=O)N1c1ccc(S(=O)(=O)NCC2CC2)cc1Cl | -4 | -1 | 0% | -0.9 | 0.7 | -5.4 | -10
Nc1nc(CSc2nc3ccccc3s2)nc(N2CCCCC2)n1 | 21 | 32 | -4% | -0.4 | 36* | -1.8 | -12
CCOc1ccc(S(=O)(=O)N2CCCC(C(=O)NCCN3CCOCC3)C2)cc1Cl (stereo not given) | -10 | -7 | . | -0.9 | 4.4 | -1.7 | -11
COc1ccccc1NC(=O)Cc1noc(CSc2n[nH]c(N)n2)n1 | -17 | 3 | . | 1.6 | 3.0 | -4.0 | -3
NC(=O)CC(NC(=O)c1ccc(Br)cc1)c1ccc(NC2CCCCCCC2)c([N+](=O)[O-])c1 (stereo not given) | -1 | 4 | . | 10 | -4.2 | 1.7 | 2
Cc1ccc(S(=O)(=O)N(CC(=O)Nc2ccccc2-c2ccccc2)c2ccc(C)cc2C)cc1 | 9 | 0 | 13% | -2.3 | 1.6 | 12 | 9
Cc1ccc(C)c(C(=O)CCC(=O)OCn2nnc3ccccc3c2=O)c1 | . | -5 | -9% | -0.4 | . | -0.6 | -3
CC(=O)c1ccc(CCCc2ccc(C(C)=O)cc2)cc1 | . | . | -1% | -0.5 | . | . | -3
COc1ccc2c(c1)nc(N)n2Cc1ccccc1 | 7 | 20 | 8% | -2.1 | 3.6 | 0.5 | 6
CC1CC(C)CN(C(=O)COC(=O)c2ccc3ccccc3n2)C1 (stereo not given) | . | -1 | 8% | 0.9 | . | . | 4
O=C(O)Cc1coc2ccc3ccccc3c12 | 19 | -12 | -8% | -6.4 | 0.5 | -0.1 | 3
O=C(CO/N=C/c1ccccc1O)N1CCc2ccccc21 | -5 | -23 | . | -0.2 | -2.9 | 3.0 | 72*
O=C1C(=NO)CCc2ccccc21 | . | . | 19% | -1.2 | . | . | 12
O=C(OCc1ccccc1F)c1cc2ccccc2cc1O | 4 | 1 | . | 1.4 | -1.5 | 1.7 | -1
CCc1noc(C)c1C(=O)Nc1nc(-c2ccc(OC)c(OC)c2)cs1 | 0 | -6 | -2% | 1.0 | . | -2.0 | 12

Screens deposited in PubChem BioAssay by several laboratories.

This is a random part of the collection; about 6.3% have a hit in one of these screens.
